# Bioassay records from PubChem.
# NPYLR7 agonist: activates Aedes aegypti NPYLR7 receptor; AID 1259423; HEK293T NPYLR7/Galpha15, GCaMP6s calcium fluorescence; activation, % at 10 µM; hit rate 0.15% among 270,000; in the data active means activation above about 40%;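 further: 0% = vehicle and 100% = reference agonist at the receptor; some compounds past the cut are filed as inactive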
# NPYLR7 agonist max-min: recorded beside NPYLR7 agonist, whose call it bears; activation, %; measured here: Max-Min RFU normalised activation; some inactives read as strong as hits;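 span of the calcium signal over five minutes; 0% = vehicle and 100% = native peptide agonist; compound fluorescence can raise it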
# Active calls of the source: *; & = joins results of further samples. This is a subset. The share of hits here may be higher or lower than overall.
SMILES | NPYLR7 agonist | NPYLR7 agonist max-min
CCC(=O)N1CCN(C(=O)c2cc(-c3ccccc3)n(-c3ccc(OC)c(OC)c3)c2C)CC1 | -6 | 5
N#Cc1ccc(C(=O)N(Cc2cccnc2)c2nc3c(F)cc(F)cc3s2)cc1 | -17 | -6
O=C(NCC(c1ccc2c(c1)OCO2)N1CCOCC1)OCc1ccccc1 (centres undefined) | -7 | -12
Cc1ccccc1NC=C1C(=O)OC2(CCCCC2)OC1=O | -2 | -1
Cc1cc(C)c(NS(=O)(=O)c2c(C)n[nH]c2C)c(C)c1 | 11 | 7
CCCCN(Cc1cccn1Cc1ccc(Br)cc1)C(=O)CN(CCCOC)C(=O)c1ccc(C)c([N+](=O)[O-])c1 | 23 | 29
CCN(CC)CCN1CCN(c2cc(-c3cc(C(F)(F)F)cc(C(F)(F)F)c3)ncn2)CC1 | -9 | -10
CC(=O)O[C@@H](C)C(=O)N1CCC(Cc2ccc(C(F)(F)F)cc2)CC1 | 1 | 5
COC(=O)CCC(=O)N1CCc2cc(OC)c(OC)cc2C1c1ccc(OC)c(OC)c1 (centres undefined) | 18 | 9
CC(CC(=O)Nc1ccccc1CC(N)=O)c1ccccc1 (centres undefined) | -1 | -4
CCCCc1ccc(C(=O)CSc2nc(C)cc(C)c2C#N)cc1 | -3 | -8
CN1CC[C@@H](c2c(O)cc(O)c3c(=O)cc(-c4ccccc4Cl)oc23)[C@@H]1CO | 2 | -2
CCOC(=O)c1sc(C(=O)O)c2c1OCCO2 | -1 | -5
OCC1(O)CCN(c2cccc(C(F)(F)F)n2)CC1 | -2 | -4
COc1ccc(OC)c2c1CC(CCl)CC2=O (centres undefined) | -2 | -10
Cc1ccc(C(CC(=O)NCc2cccnc2)c2c[nH]c3ccccc23)c(C)c1 (centres undefined) | 19 | 19
FC(F)(F)c1ccc(C#CCN2CCOC3CCCCC32)cc1 (centres undefined) | 3 | 1
NCCCNCCSP(=O)(O)O | 7 | -6
COC(=O)c1ccc(N2C(=O)C3CC(Br)C(Br)CC3C2=O)cc1 (centres undefined) | 0 | -6
CCCCSc1nnc2c(n1)OC(c1ccccc1[N+](=O)[O-])Nc1ccccc1-2 (centres undefined) | -9 | -7
C=CCc1cc(CN2C[C@H](N)C[C@H]2C(=O)NC)ccc1OC | 10 | 7
CCN(CC)CCNc1nc(Nc2ccc(C)cc2)c2cnn(-c3ccccc3)c2n1 | 0 | -2
CCc1[nH]n(-c2ccc(F)cc2)c(=O)c1C1=C([n+]2ccc(C)c(C)c2)C(=O)N(C2CCCCC2)C1=O | 7 | 6
CCCCN(CC(=O)N(Cc1cccn1C)CC(C)C)C(=O)c1cccc(Br)c1 | 1 | 11
Cc1cc2c(cc1F)C(=O)NC1(CCN(C(=O)C3CC3)CC1)N2 | 11 | 7
O=S(=O)(Oc1cc(Cl)ccc1-c1nc2ncccc2o1)c1ccc(F)cc1 | -5 | -2
CN1CCN(c2cc(C(C)(C)C)nc(SCc3ccc(C(=O)NCCc4ccccn4)cc3)n2)CC1 | 10 | 11
Cn1ccnc1C(=O)C1CCCN(Cc2nc(-c3ccc4c(c3)OCO4)no2)C1 (centres undefined) | 5&-2 | 2&-4
CCCOc1nn(CCC)cc1C(=O)N1CCC(C)CC1 | -8 | -10
CSc1ncccc1C(=O)N(Cc1ccccc1)[C@H]1C[C@H]2CCOC[C@@]2(c2ccccc2)C1 | 8 | 24
COC(=O)CN(C#N)c1nc(SC)nc(N(C)C)n1 | 10 | 3
Cc1nc(C(C)N(C)C(=O)c2cn(C3CCCCCC3)nn2)c(C)s1 (centres undefined) | 38 | 27
OC(c1cn2cc(-c3ccccc3)nc2s1)(C(F)(F)F)C(F)(F)F | 0 | 0
COc1cc(S(=O)(=O)N2CCN(c3ccc(C)c(Cl)c3)CC2)ccc1Cl | 2 | 2
Cc1ccc(-c2nn(CCC(=O)O)cc2CCC(=O)O)cc1 | 3 | 1
N#Cc1ccc(COC(CN2CCN(C(=O)c3cccnc3Cl)CC2)c2cccc(N3CCCC3)c2)cc1 (centres undefined) | 7 | -1
CCc1nc2ccc(C(=O)N3CCN(C)CC3)cn2c1N(CC)Cc1ccc(OC)c(OC)c1 | 2 | 8
CCCc1cc(=O)n(CC(=O)Nc2cccc(F)c2)c(-n2nc(C)cc2C)n1 | 0 | 2
CCCCN(C)S(=O)(=O)c1ccc2c(c1)nc(SCc1c(C)noc1C)n2C1CCCC1 | 8 | 2
CC1(C)[C@@]2(C(=O)NCCc3nc4ccccc4[nH]3)CC[C@]1(C)[C@@H](O)C2 | 13 | 3
CCCc1[nH]n(C)c(=O)c1C1=C(N2CCC(C)CC2)C(=O)N(c2ccc(OC)c(OC)c2)C1=O | 17 | 14
Cc1cccc(COC(=O)c2c(C)nsc2N)c1 | 5 | 4
O=C(NCCN1CCN(c2nc(Cc3ccc(F)cc3)ns2)CC1)Nc1ccc(Cl)cc1Cl | -3 | -3
Cc1noc(C)c1S(=O)(=O)NC(C)(C)CC(C)(C)C | 2 | -2
Cn1c(-c2cccc(F)c2)nc2cnc(-c3ccc(N)nc3)cc21 | 15 | 12
C/C=C\Cn1c(C(=O)N2CCN(C/C=C/c3ccccc3)CC2)cc2ccsc21 | 1 | 11
Cc1[nH]cnc1-c1nccn1CCN1CCOC1=O | 26 | 11
CCCCN(Cc1cccn1Cc1cccc(C(F)(F)F)c1)C(=O)CN(CC)C(=O)C(CC)c1ccccc1 (centres undefined) | -2 | 6
CCCCCCn1c(N2CCNCC2)nc2c1c(=O)[nH]c(=O)n2C | 0 | -2
COc1ccc(OC)c(C(C)n2ccnc2C(C)C)c1 (centres undefined) | 1 | -1

# (listing goes on)
SMILES | NPYLR7 agonist | NPYLR7 agonist max-min
CSC1(c2ccc(C)cc2)CC(C)=C(C)CS1=O (centres undefined) | 8 | 7
COc1cc(CN2CCn3nc(C(=O)NCc4ccco4)cc3C2=O)cc(OC)c1 | 19 | 10
O=C1N(Cc2ccc(F)c(F)c2)CCCC1(O)CNC1Cc2ccccc2C1 (centres undefined) | 7 | 5
CCOC(=O)C1CCCN(C(=O)CSc2nc(Cl)cc(N3CCN(C(=O)c4ccc(C(C)(C)C)cc4)C(C)C3)n2)C1 (centres undefined) | 18 | 13
C=CCn1c(=O)n(CC=C)c2cc3n[nH]nc3cc21 | 18 | 12
CCOC(=O)c1cc(-c2ccc(OC)cc2)n(C2CCN(C(=O)c3cccc(OC)c3)CC2)n1 | 29 | 21
CC1Cn2c(nc3c2c(=O)[nH]c(=O)n3C)O1 (centres undefined) | 4 | 3
COc1ccccc1CC(=O)Nc1cnn(CC(=O)N2CCC(c3cccc(OC)c3OC)C2)c1 (centres undefined) | -7 | -6
CCN1C(=O)CC2(C1=O)C(=O)N(C)c1ccc(OC)cc12 (centres undefined) | 8 | -3
Cc1csc(SCCn2c(=O)oc3ccccc32)n1 | 19 | 17
COc1cccc(CN2CCCC3(CCN(C(=O)c4cccc(N(C)C)c4)C3)C2)c1OC (centres undefined) | 18 | 9
c1csc(-c2cnc3ccc(-c4ccncc4)nn23)c1 | 8 | 3
NCCCn1nnc2ccccc21 | 1 | 6
CC(=O)Nc1ccc(S(=O)(=O)N2CCN(Cc3cc(=O)c(OCc4cc(C)cc(C)c4)co3)CC2)cc1 | 4 | 6
CCOCCCNC(=O)c1cc(NC(=O)c2cccc(Cl)c2)ccc1N1CCN(c2ccccc2OC)CC1 | 12 | 8
Cc1cccc(CN2CCN(Cc3cnc(-c4cccs4)nc3)CC2)c1 | 13 | 7
Cc1cc(C)n(-c2ccc(C(=O)NCCC(c3ccccc3)c3ccccc3)cc2)n1 | -5 | -8
O=[N+]([O-])c1ccc(S(=O)(=O)Nc2ccc3cn[nH]c3c2)cc1 | 12 | 10
COc1ccc(NC(=O)CSc2ccc(-c3sc(-c4cccs4)nc3C)nn2)c(OC)c1 | 7 | -2
Cc1ccnc(CC(C)N(C)C(=O)c2ccc3nccn3c2)c1 (centres undefined) | 19 | 11
O=C(Nc1cccc(-c2nc3ncccc3o2)c1)c1ccc(Cl)c(Cl)c1 | 24 | 25
CC(C)Nc1ncc(C(=O)N(Cc2ccco2)C(C)C(C)C)cn1 (centres undefined) | 3 | 2
CC(NC(=O)Nc1ccc2c(c1)OCO2)C1CC2CCC1C2 (centres undefined) | 7 | 4
CC(=O)Nc1ccc(NC(=O)Cn2nc(-c3ccco3)c3sc(C)nc3c2=O)cc1 | 3 | 1
CC(C)(O)C#Cc1cccc(C(=O)N2CC(c3ccncc3)C2)c1 | -4 | -2
Cn1c(N2CCC(C)(CCc3ccccc3)C2)nc2c1c(=O)[nH]c(=O)n2C (centres undefined) | 1 | 11
Cc1ccc(OCC(=O)C2CCCCC2)c(S(=O)(=O)N(C)C)c1 | 2 | -1
CCc1nc(C)c(C(=O)Nc2cccc(C(F)(F)F)n2)s1 | 2 | 0
CCN(CC)C(=O)CSc1c(COC)cnc2c1c(=O)n(C)c(=O)n2C | 8 | 14
O=C(CCN1CCCCCC1=O)NC1CCCN(CC2CCCCC2)C1 (centres undefined) | 0 | -5
O=P(Nn1cnnc1)(c1cccc2ccccc12)c1cccc2ccccc12 | -3 | -12
COCCNc1nc(Nc2ccccc2)c2nccnc2n1 | 1 | 6
Cc1ccc(CN2CCN(Cc3c(C)nn(C(C)C)c3C)CC2CCO)o1 (centres undefined) | 3 | -2
CCCCC(COC)NC(=O)c1n[nH]c(=O)[nH]1 (centres undefined) | 3 | 6
C=CCn1c(SCC(=O)Nc2ccccc2O)nc2sc(CC)cc2c1=O | 6 | 2
CC(C)c1cc(N2CCOC(c3ccc(Cl)cc3)C2)nc(C(F)(F)F)n1 (centres undefined) | -5 | -6
CCOC(=O)C1(CCCc2ccccc2)CCN(C(=O)[C@@H]2CCCN2C(C)=O)CC1 | 25 | 12
CC(C)NC(=O)CC[C@@H]1CNC(=O)[C@@H]2C[C@H](NCc3ccc(F)cc3)CN12 | -6 | -13
COC(=O)C1=NN(C(C)=O)C(O)(c2ccccc2)C1 (centres undefined) | -9 | -16
C=CCNC(=S)NN=C1CCCCc2ccccc21 | -4 | -8
Cc1ccnc(SCCCn2c(Br)nc3c2c(=O)[nH]c(=O)n3C)n1 | 12 | 8
O=C(NC1Cc2ccccc2C1)C1CCC(=O)N(Cc2cccc(C(F)(F)F)c2)C1 (centres undefined) | 3 | -5
CCc1cc(C(=O)NCCS(=O)(=O)N(C)C)cs1 | 2 | -2
CC(C)c1noc(C(C)N2CCc3[nH]c4ccccc4c3C2)n1 (centres undefined) | 4 | 1
CCCNC(=O)c1nn(C(C)C)c(=O)c2ccccc12 | 1 | -3
COCc1cc(CNC(=O)c2cnn3cc(C)cnc23)[nH]n1 | 4 | 2
COc1ccc(Oc2cc(-c3ccccc3)nc(SCc3ccccc3)n2)cc1 | -1 | -3
CCCN(CC(=O)NC)C(=O)c1c(C)noc1C(C)C | 3 | 7
COc1ccc(OC)c(CN(Cc2nc(C(=O)NCc3ccco3)co2)C(C)c2ccccc2)c1 (centres undefined) | -3 | 27
Cc1cc2nc(Cc3ccccc3)n(CC(=O)NCc3ccco3)c2cc1C | 4 | 3

# (cont.)
SMILES | NPYLR7 agonist | NPYLR7 agonist max-min
Cc1ccc(Sc2ccc(C(=O)NC3CC3)cn2)cc1 | 1 | 0
c1ccc2oc(NCC3CNCCOC3)nc2c1 (centres undefined) | -2 | -9
O=C(c1ccccc1-n1cncn1)N1C[C@H]2CC=CC[C@H]2C1 | 25 | 11
N#Cc1c2nc3ccccc3cc2c(=O)n2c1sc1ccccc12 | -5 | -8
COc1cn(CC(=O)NCc2ccc3c(c2)OCO3)c(CSc2ncccn2)cc1=O | -3 | -7
O=C(NCC12CCCN1CCC2)c1ccc(C2CCNC2)cc1 (centres undefined) | 3 | 0
COC(=O)c1c(NC(=O)c2cc(OC)c(OC)c(OC)c2)sc2c1CCC(C(C)(C)C)C2 (centres undefined) | -5 | -10
CCCSc1nnc2[nH]c(=O)c(C)c(C)n12 | -14 | -14
Cc1ccc2nc(Cn3cnc4c3c(=O)n(C)c(=O)n4C)cn2c1 | -1 | -1
Cc1oc(-c2cc3c(cc2Cl)OCO3)nc1CN1CCCN(C(=O)c2ccco2)CC1 | 15 | 7
Cc1ccc(C(=O)N2CCCC(C(=O)Nc3nccs3)C2)cc1 (centres undefined) | -3 | -3
Cc1ccc(NC(=O)c2ccc(Nc3nc(-c4ccccc4)c4cc(C)ccc4n3)cc2)c(C(=O)c2ccccc2)c1 | 11 | 7
CC1(c2ccc(Br)s2)NC(=O)N(Cc2ccccc2)C1=O (centres undefined) | 8 | 6
CCCCc1cc2ccccc2c(OCCN(C)C)n1 | 13 | 15
COc1ccc(-c2nc3cc(C)ccn3c2NC(=O)c2ccccc2C)cc1 | -7 | -7
CN(C)C1(CNC(=O)CC(c2cnc3ccccc3n2)n2ccnc2)CCCCC1 (centres undefined) | 5 | 14
CCC(NC(=O)c1cc2ncccn2n1)c1nc(C)c(C)s1 (centres undefined) | -2 | -7
Cc1oc(C(O)C(O)C(O)CO)cc1C(=O)O (centres undefined) | -1 | 0

# In the list so far, 9 have a thiophene ring, fused or not.
SMILES | NPYLR7 agonist | NPYLR7 agonist max-min
CCOC(=O)c1sc(C(=O)O)c2c1OCCO2 | -1 | -5
C/C=C\Cn1c(C(=O)N2CCN(C/C=C/c3ccccc3)CC2)cc2ccsc21 | 1 | 11
c1csc(-c2cnc3ccc(-c4ccncc4)nn23)c1 | 8 | 3
Cc1cccc(CN2CCN(Cc3cnc(-c4cccs4)nc3)CC2)c1 | 13 | 7
COc1ccc(NC(=O)CSc2ccc(-c3sc(-c4cccs4)nc3C)nn2)c(OC)c1 | 7 | -2
C=CCn1c(SCC(=O)Nc2ccccc2O)nc2sc(CC)cc2c1=O | 6 | 2
CCc1cc(C(=O)NCCS(=O)(=O)N(C)C)cs1 | 2 | -2
COC(=O)c1c(NC(=O)c2cc(OC)c(OC)c(OC)c2)sc2c1CCC(C(C)(C)C)C2 (centres undefined) | -5 | -10
CC1(c2ccc(Br)s2)NC(=O)N(Cc2ccccc2)C1=O (centres undefined) | 8 | 6
